Screens as filed in PubChem.
miR-21 FLuc = miR-21 reporter, rising signal. Potency, µM (highest dose often 38.3 µM), inactives show top-dose reporter change, positive = more light. HeLa miR-21 FLuc reporter, luciferase, 48 h. 340,000 tested, under 10 active. AID 2288; active = well fitted rising curve with a large enough effect; inconclusive = small, poorly fitted or top-dose-only effect; inactive = no such curve, though single readings can be large or run the other way;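 also: % of control where 0% means no effect; miR-21 action dims this reporter so a rising signal means less miR-21 action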
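HeLa cells stably expressing CMV-driven firefly luciferase with a downstream miR-21 binding sequence, endogenously expressing miR-21, were treated with titrations (up to about 40uM final) for 48 hours at 37 degree Celsius. Luciferase luminescence was read after lysis.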
Rango complex inh = Rango-importin beta binding inhibition; AID 540263; 0.031% of 340,000 active; Rango CFP/YFP FRET sensor + importin beta, 45 min; Potency, µM (top dose mostly 92.2 µM), for inactives: at the top dose inhibition of complex formation; active = rising FRET ratio curve, often small or poorly fitted; inconclusive = mostly compound fluorescence or quenching in the first reads; inactive = flat curves in all reads;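 also: potency is read from the fitted curve at half-maximal effect; 0% = DMSO wells and 100% = buffer wells lacking importin beta; nearly all actives have a fitted effect of over 15% in size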
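FRET biosensor (snurportin 1 IBB flanked by EYFP and cerulean), 50 nM, with compound 5 min, then 0.125 microM importin beta in PBS, 1 mM DTT, 0.02% Tween-20, 0.1% BSA. CFP/YFP ratio read after 45 min at room temperature; pre-read flags interference.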
Rango dissoc inh = prevents RanGTP from dissociating the Rango-importin beta complex; 0.071% of 340,000 active; Potency, µM (highest dose often 46.1 µM), inactives show top-dose activity change, negative = inhibition; O95149+P62826; Biochemical FRET Rango-importin beta, RanGTP-induced dissociation; active means falling FRET ratio curve, often poorly fitted, with flat reads before Ran was added; inconclusive means other falling curves, or compound fluorescence or quenching; inactive means flat or rising ratio curve;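 also: potency is read from the fitted curve at half-maximal effect; % of control where 0% means no effect; nearly all actives have a fitted effect of over 45% in size; -100% = wells without RanGTP and RCC1; the record marks most hits as doubtful in a second field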
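Quantitative HTS using a FRET biosensor: 0.1 uM Rango, 0.25 uM importin beta, 0.6 uM Ran, 2 mM GTP, 0.2 uM RCC1 final, PBS with DTT, Tween-20 and BSA. Post-read taken 45 min after Ran addition.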
GLA inh pH 4.5 = blocks human alpha-galactosidase A at pH 4.5; P06280; purified enzyme, 4-MU-alpha-Gal fluorescence, pH 4.5; activity change, negative = inhibition, % at 105 µM; 230,000 tested, under 10 active; inconclusive = small, poorly fitted or top-dose-only inhibition, or a rising curve; inactive = flat fitted curve, though single readings scatter; no compound was filed as active;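 also: 0% = full activity with enzyme and -100% = basal without enzyme; dose as in the result columns while the protocol names 77 µM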
Target sequence (P06280 whole entry, looked up): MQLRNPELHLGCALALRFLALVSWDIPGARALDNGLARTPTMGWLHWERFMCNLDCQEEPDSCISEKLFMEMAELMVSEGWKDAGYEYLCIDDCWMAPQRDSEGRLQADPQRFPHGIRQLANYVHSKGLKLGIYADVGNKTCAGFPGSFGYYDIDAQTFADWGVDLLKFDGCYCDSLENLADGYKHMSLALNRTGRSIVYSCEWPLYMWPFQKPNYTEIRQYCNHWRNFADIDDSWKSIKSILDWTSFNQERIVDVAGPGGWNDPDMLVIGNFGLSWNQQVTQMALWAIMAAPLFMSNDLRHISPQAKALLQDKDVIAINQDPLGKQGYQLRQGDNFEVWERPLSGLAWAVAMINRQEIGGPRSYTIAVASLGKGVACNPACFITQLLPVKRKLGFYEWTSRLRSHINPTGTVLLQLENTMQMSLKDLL
Starred values were filed as active, the others as inactive; ? = inconclusive; / = not tested or not shown; & = joins results of further samples. Only part of the results is shown; the hit share may differ from the screen's.

SMILES | miR-21 FLuc | Rango complex inh | Rango dissoc inh | GLA inh pH 4.5
O=C(NC(Cc1ccc(O)cc1)C(=O)O)c1ccco1 (stereo not drawn) | 4% | 0.7% | -1% | 3
CCN(CC)S(=O)(=O)c1ccc(CNC(=O)CN2C(=O)NC3(CCc4ccccc43)C2=O)cc1 (stereo not drawn) | / | 1.7% | 0% | /
CC(O)/C=C/c1ccc2ccccc2n1 (stereo not drawn) | 15% | 0.4% | 16% | -2
O=C(O)c1cccc(Br)c1 | / | 5.9% | 2% | /
N#CCCS(=O)(=O)c1ccc(N)cc1 | -9% | -2.4% | -1% | -1
COc1ccc(/C(C)=N/NC(=S)NCCc2ccccc2)c(O)c1 | 3% | -2.8% | -5% | /
O=S(=O)(NCc1ccc(Cl)cc1Cl)c1cccs1 | -43% | 0.0% | -20% | /
O=C(COC(=O)c1cccnc1Cl)NCCCc1ccccc1 | / | -0.5% | -18% | /
CN1CCN(C(=O)CN(Cc2ccc(Cl)cc2)S(C)(=O)=O)CC1 | -1% | -2.0% | 2% | 5
COc1ccc(NC(=O)c2c(N)no[n+]2[O-])c(OC)c1 | -2% | 2.5% | -8% | -6
O=C(O)c1ccc(NS(=O)(=O)c2cccc(C(=O)Nc3ccccc3[N+](=O)[O-])c2)cc1 | -4% | 0.8% | -2% | /
Clc1ccc(OCCOCCN2CCCCC2)c(Br)c1 | -18% | 0.8% | 0% | 10
COc1cc(CNC(=O)C2CCCN2S(=O)(=O)c2ccccc2)cc(OC)c1OC (stereo not drawn) | 0% | 2.4% | 4% | 1
Cc1ccc(S(=O)(=O)N2CCCCC2)cc1NC(=O)COC(=O)C1=COCCO1 | -3% | -0.3% | -3% | -7
O=S(=O)(NC1CCCCCCC1)c1cccs1 | -7% | 0.1% | 4% | -1
CC(NC(=O)c1ccc(CS(C)(=O)=O)cc1)c1ccc(-c2ccccc2)cc1 (stereo not drawn) | -4% | 0.3% | -2% | /
O=C1CN=C(Nc2ccccc2)N1Cc1cccs1 | -5% | 3.8% | 20% | 2
COc1cccc(OC)c1C(=O)N1CCN(C(=O)c2ccc(-c3ccccc3)cc2)CC1 | 8% | -1.0% | -4% | /
Cc1nn(C2CCS(=O)(=O)C2)c(Cl)c1/C=C/C(=O)OCC(=O)Nc1ccccc1[N+](=O)[O-] (stereo not drawn) | 10% | -3.3% | 8% | 7
Cc1cc(-c2cc(C(=O)NC3CCCC3)on2)nc(NCC2CC2)n1 | 0% | -0.8% | 5% | 3
CC(=O)c1ccccc1NC(=O)COC(=O)CCCN1C(=O)c2cccc3cccc(c23)C1=O | -5% | -2.1% | 8% | 0
NC(=O)C1CCCN1Cc1ccc2c(c1)OCO2 (stereo not drawn) | / | -0.4% | -6% | /
CCSc1nnc(SCC(=O)NNC(=O)c2ccccc2F)s1 | 0% | -1.4% | 8% | /
CC1(C)Cc2c(sc3c2c(=N)n(Cc2ccco2)c(=O)n3Cc2ccccc2)CO1 | -8% | 0.6% | 10% | 0
C/C(=C\COc1cc(=O)[nH]c2ccccc12)CCC(O)C(C)(C)O (stereo not drawn) | -2% | 3.1% | -4% | 1&-1&5

An excerpt from above in order of their number in Rango complex inh, descending.
SMILES | miR-21 FLuc | Rango complex inh | Rango dissoc inh | GLA inh pH 4.5
O=C(NC(Cc1ccc(O)cc1)C(=O)O)c1ccco1 (stereo not drawn) | 4% | 0.7% | -1% | 3
O=S(=O)(NCc1ccc(Cl)cc1Cl)c1cccs1 | -43% | 0.0% | -20% | /
NC(=O)C1CCCN1Cc1ccc2c(c1)OCO2 (stereo not drawn) | / | -0.4% | -6% | /
CCSc1nnc(SCC(=O)NNC(=O)c2ccccc2F)s1 | 0% | -1.4% | 8% | /
CC(=O)c1ccccc1NC(=O)COC(=O)CCCN1C(=O)c2cccc3cccc(c23)C1=O | -5% | -2.1% | 8% | 0

The results go on.
SMILES | miR-21 FLuc | Rango complex inh | Rango dissoc inh | GLA inh pH 4.5
COc1cc(CNc2nc3ccccc3n2C)cc(OC)c1OC | -10% | 1.2% | -1% | -1
Cc1cccc(NS(=O)(=O)c2ccc(Oc3ccccc3)cc2)n1 | -5% | -0.3% | -3% | -4
O=C(CSc1nc2ccccc2n1S(=O)(=O)c1ccccc1)N1CCCCC1 | -31% | ? | -12% | 5
O=C(NC(=S)N1CCCc2ccccc21)c1ccc([N+](=O)[O-])cc1 | -16% | ? | -14% | -6
COc1ccc(S(=O)(=O)CCC(=O)N2CCN(c3ccc([N+](=O)[O-])cc3)CC2)cc1 | 1% | 0.6% | 16% | /
C/C(=N\NC(=O)c1ccccc1O)c1c(O)cc(C)oc1=O | -26% | ? | -6% | -21
O=C(NNc1nc2ccc(Cl)cc2s1)c1cc(-c2cccs2)nc2ccccc12 | 25% | -2.7% | 36% | -3
O=C(NC(Cc1c[nH]c2ccccc12)c1nnc2n1CCCCC2)c1ccccc1 (stereo not drawn) | -3% | 2.4% | -6% | 8
Cc1ccc(C)c(N2N=C(C(=O)Nc3cccc(S(=O)(=O)N4CCCCC4)c3)CCC2=O)c1 | / | 1.0% | -6% | /
Cc1cc(=O)[nH]c(SCC(=O)N2CCN(C(=O)c3ccco3)CC2)n1 | / | 0.1% | -15% | /
Cc1cc(C)cc(COn2ccnc2)c1 | -8% | -0.1% | -1% | 14
COC(=O)C1=C(N)OC2=C(C(=O)CC(C)(C)C2)C1c1cccs1 (stereo not drawn) | 0% | -0.4% | -2% | -2
COc1ccc(NC(=S)Nc2cccc(C(F)(F)F)c2)c(C)c1 | -2% | -0.4% | -1% | 3
O=C(c1ccc(Cl)nc1)N1CCN(S(=O)(=O)c2ccc3c(c2)OCCO3)CC1 | / | 1.5% | 4% | /
Cc1ccc(-c2nc3ccccc3[nH]2)s1 | -20% | 1.8% | 28% | 0
COc1ccc(C(=O)Nc2ccccc2SCc2cc(=O)n3nc(C)sc3n2)cc1OC | -5% | 0.2% | -10% | /
O=C(NCc1ccc(C(F)(F)F)cc1)C12CN(Cc3ccccc3)CC1C(c1cccc([N+](=O)[O-])c1)=NO2 (stereo not drawn) | -2% | 1.1% | 1% | -13
Cc1[nH]c(C)c(C(=O)O)c1CNC1CCCCC1C (stereo not drawn) | -9% | / | / | -10
O=C(CN(C(=O)CSc1nc2ccccc2o1)c1cccc(F)c1)NC1CCCCC1 | -1% | 4.9% | 3% | -5
CCOC(=O)C1CCCN(CCC(=O)Nc2cccc(F)c2)C1 (stereo not drawn) | -2% | 1.3% | 17% | 3
COc1cc2cc3c(N)c(C(=O)Nc4sc(C)c(C)c4C#N)sc3nc2cc1OC | -1% | 9.1% | ? | -10
CCC1Oc2ccccc2N(Cc2ccccc2C)C1=O (stereo not drawn) | -12% | -1.2% | 7% | 14
O=C(NC(=S)Nc1ccccc1N1CCCC1)c1ccc(F)cc1 | -11% | -0.3% | -18% | 3
O=C(NCCOc1ccccc1)C1CCC(=O)N(Cc2ccc(Cl)cc2)C1 (stereo not drawn) | 0% | 4.4% | 15% | /
OCCC1CN(CCCc2ccccc2)CCN1Cc1ccccc1 (stereo not drawn) | -4% | -4.5% | -15% | -4
The list continues:
SMILES | miR-21 FLuc | Rango complex inh | Rango dissoc inh | GLA inh pH 4.5
CC(=O)c1ccc(OCCCC(=O)Nc2cccc(S(=O)(=O)N3CCCCCC3)c2)cc1 | / | -0.4% | 1% | /
CCCCc1ccc(NC(=S)N2CCN(C(=O)OCC)CC2)cc1 | 4% | -0.3% | 5% | /
Cc1ccc(Cn2nnc3c(=O)[nH]c(C4CCN(S(=O)(=O)c5ccc(C)cc5)CC4)nc32)cc1 | -12% | 1.3% | 0% | -4
COc1ccc(NS(=O)(=O)c2ccc(C(=O)OC(C)C(=O)N3CCOCC3)cc2)cc1 (stereo not drawn) | 1% | -0.2% | 5% | /
CCC(=O)c1cn(CC(=O)Nc2cccc(C)c2C)c2ccccc12 | 6% | 0.4% | 1% | /
Cc1cc(C)nc(SCC(=O)O)n1 | -12% | 2.7% | -1% | -10
O=C1c2ccccc2C(=O)N1CC1c2ccccc2CCN1C(=O)CN1CCOCC1 (stereo not drawn) | 4% | -5.1% | 15% | -4
Cc1ccccc1OCc1nnc(SCc2nc3ccccc3c(=O)[nH]2)n1C | 0% | 2.5% | 8% | 6
O=C(COc1ccc(C(=O)c2ccccc2)cc1)Nc1cccnc1 | 23% | 5.2% | -2% | /
CCC(=O)Nc1cc(C(=O)OCc2ccc(C(=O)Oc3ccccc3)cc2)ccc1C | -5% | -0.1% | -4% | 4
Cc1ccccc1S(=O)c1ccccc1C(=O)O (stereo not drawn) | -3% | -0.8% | -5% | -1
Cc1ccc(C(=O)NCCOC23CC4CC(CC(C4)C2)C3)cc1 | -19% | ? | -2% | -7
COc1ccc(CN2CCN(C(=O)Cn3nc(C)n4cccc4c3=O)CC2)c(OC)c1OC | 5% | 1.0% | -3% | /
CCOc1ccccc1C(=O)N[C@H](C(=O)Nc1nc2c(s1)CCCC2)C(C)C | 5% | -3.0% | -5% | -6
CN(Cc1ccccc1F)C(=O)CCNC(=O)c1ccc(C(C)(C)C)cc1 | / | 1.7% | -7% | /
Cn1nc(C(=O)Nc2ccc(Cl)cc2)cc1C(=O)Nc1ccc(Cl)cc1 | 1% | 1.4% | -8% | /
c1ccc(Cn2nnc3c(N4CCOCC4)ncnc32)cc1 | -14% | 0.1% | -2% | 10
COC(=O)c1c(NC(C)=O)csc1C | -2% | -1.0% | 1% | 2
CCOC(=O)C1=NN(c2cccc(C)c2)C2(S1)SC(C(C)=O)=C(C)N2c1ccccc1 (stereo not drawn) | 1% | ? | -1% | -13
Cc1oc(-c2ccc(Cl)cc2)nc1CS(=O)CC(=O)NCc1ccco1 (stereo not drawn) | 0% | -0.9% | 7% | /
CCOC(=O)c1oc2cccc(O)c2c1CN(Cc1ccccc1)C(C)=O | 2% | -0.1% | 3% | 4
Clc1ccccc1/C=N/N1CCN(Cc2ccccc2)CC1 | -29% | 7.2% | -4% | /
O=C(CSC1=NS(=O)(=O)c2cc(F)ccc2N1)NCc1ccccc1 | / | 1.5% | 0% | /
COCC(=O)N(CCc1ccccc1)Cc1cc2cc(C)ccc2nc1Cl | -2% | -4.9% | -7% | /
Cc1ccc(C(=O)N/N=C\C2CC=CCC2)cc1[N+](=O)[O-] (stereo not drawn) | 11% | 5.3% | 4% | /
New compounds follow
SMILES | miR-21 FLuc | Rango complex inh | Rango dissoc inh | GLA inh pH 4.5
CCOC(=O)c1cncc(O)c1 | -1% | -0.7% | 1% | 0
Cn1c(=O)c2c(ncn2CC(=O)Nc2nc(-c3ccc(F)c(F)c3)cs2)n(C)c1=O | 1% | 3.0% | 18% | -6
C=CCNC(=O)c1onc(CSc2ccc(Cl)cc2)c1C(=O)NCC=C | 6% | 5.6% | 4% | -5
O=C(O)CCCCCNC(=O)OCC1c2ccccc2-c2ccccc21 | 3% | -0.5% | -3% | /
N#CC(C#N)=C(N)/C(C#N)=C/c1cc(O)c(O)c(O)c1 | / | ? | ? | /
O=c1c2cnn(-c3ccccc3)c2ncn1Cc1cccnc1 | 0% | 1.1% | 17% | 1
COc1cc(/C=N\NC(=O)CC#N)ccc1OC/C=C/c1ccccc1 | 8% | -2.1% | -11% | /
Cc1cccc(Cc2c(C)nc3c(C(=O)N4CCN(Cc5ccc6c(c5)OCO6)CC4)cnn3c2C)c1 | 12% | 0.2% | -16% | 1
CCC(C)NCCOCCOc1cc(C)c(Cl)c(C)c1 (stereo not drawn) | -13% | 2.6% | 8% | 2
CC1Cc2ccccc2N1C(=O)NC1CC(=O)N(c2ccc3c(c2)OCCO3)C1 (stereo not drawn) | 5% | 3.3% | 5% | -13
CC(=O)N1CCN(S(=O)(=O)c2cccc(C(=O)Nc3ccccc3N3CCCCC3)c2)CC1 | / | 0.2% | 16% | /
CN(CC(=O)Nc1ccccc1Br)C(=O)c1ccccc1OCc1ccccc1Cl | / | 0.7% | -9% | /

Full records, quoted from the list. Screens in order: miR-21 FLuc | Rango complex inh | Rango dissoc inh | GLA inh pH 4.5
`CC1Cc2ccccc2N1C(=O)NC1CC(=O)N(c2ccc3c(c2)OCCO3)C1` (stereo not drawn) in the list: 5% | 3.3% | 5% | -13
`O=c1c2cnn(-c3ccccc3)c2ncn1Cc1cccnc1` in the list: 0% | 1.1% | 17% | 1
